CSC inhib: cancer stem cell viability inhibitors, primary screen, luminescence | cancer stem cell-like cells viability | inhibition, % at 7.5 µM | actives 1.1% (n = 300,000) | AID 2717, 2010;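 active = mean at 75% or more and at least half the replicates too; tested in HMLE shEcad cells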;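 also: 0% = median of negative and 100% = median of positive control wells; the first replicate is given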
PABP polyA inh: PABP poly(A) RNA binding inhibitors, primary screen, biochemical, fluorescence polarization, uHTS; Polyadenylate-binding protein 1 (Homo sapiens), P11940; actives 1% (n = 290,000); inhibition, % at 35 µM;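 active = 50% or more with normal probe brightness, or confirmed in later tests; about a fifth of its hits are not listed in these tables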;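 also: calls also rest on retests at 20 µM and on dose response follow-up; controls were probe without protein and protein plus probe with vehicle; some compounds called inactive have numbers as strong as hits; many hits fall short of the cut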
Target sequence (P11940 whole entry, looked up): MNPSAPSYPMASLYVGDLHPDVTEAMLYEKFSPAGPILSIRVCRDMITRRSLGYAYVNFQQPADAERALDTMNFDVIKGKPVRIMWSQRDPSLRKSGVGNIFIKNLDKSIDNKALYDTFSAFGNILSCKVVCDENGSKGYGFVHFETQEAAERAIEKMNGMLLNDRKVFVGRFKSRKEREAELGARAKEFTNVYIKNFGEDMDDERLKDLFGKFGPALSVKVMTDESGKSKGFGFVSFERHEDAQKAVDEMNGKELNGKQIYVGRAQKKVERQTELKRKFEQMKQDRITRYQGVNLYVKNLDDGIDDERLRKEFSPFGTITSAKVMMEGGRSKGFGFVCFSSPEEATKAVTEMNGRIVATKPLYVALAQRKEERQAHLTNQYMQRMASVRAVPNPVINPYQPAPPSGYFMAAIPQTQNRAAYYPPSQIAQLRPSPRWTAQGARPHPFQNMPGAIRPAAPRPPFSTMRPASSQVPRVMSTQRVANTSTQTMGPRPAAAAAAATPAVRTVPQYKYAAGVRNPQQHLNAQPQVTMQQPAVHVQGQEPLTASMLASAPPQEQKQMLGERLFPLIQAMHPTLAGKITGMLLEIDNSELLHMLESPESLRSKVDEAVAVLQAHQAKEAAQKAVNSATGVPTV
Env fusion inh: inhibitors of HIV-1 Env-driven cell-cell fusion, primary screen, HeLa-JRFL effector, CEM21 target cells, luciferase. AID 651610, 2012. actives 1.1% (n = 360,000). inhibition, % at 12.3 µM;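 active = mean replicate inhibition score of at least 50 and every replicate individually at or above 50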;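 also: 0% = plate neutral controls and 100% = maraviroc near 300 nM; one replicate is shown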
eIF4H inh: human eIF4H binding inhibitors, primary screen, translation initiation inhibitor project, biochemical, uHTS, fluorescence polarization | AID 2012, 2009 | actives 0.94% (n = 290,000) | inhibition, % at 35 µM | Eukaryotic translation initiation factor 4H (Homo sapiens), Q15056 | eIF4H fluorescence polarization binding assay;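 active = 50% or more with normal probe brightness, or confirmed in later tests; about a fifth of its hits are not listed in these tables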;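 also: calls also rest on retests at 20 µM and on dose response follow-up; 0% = protein and probe with vehicle and 100% = probe without protein; strong numbers were not always called active; many hits fall short of the cut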
MT1-MMP act inh: blockers of MT1-MMP proenzyme processing, primary screen, HT1080 RFP-PRO-GFP cells, GFP/RFP fluorescence; GFP/RFP ratio change, % at 20 µM; AID 651647, 2012; actives 0.061% (n = 360,000); GFP/RFP ratio fluorescence, overnight; percent of plate control window, DMSO zero;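 active = GFP/RFP ratio change of at least 30% with cell ATP level not reduced by more than half and red fluorescence within 50% of control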; also: strong numbers were not always called active
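Material: RFP-PRO-GFP reporter HT1080 cells. Dosing: single-point 20 µM compound, 1% DMSO. Controls: DMSO and RFP-L50D-GFP cell wells. Timing: cells overnight before dosing, compound overnight, 37 °C, 5% CO2. Measure: GFP/RFP fluorescence ratio.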
UUG fidelity: modulators of yeast start codon fidelity, primary screen, whole organism, S. cerevisiae, single point, plate reader; S. cerevisiae UUG-firefly luciferase reporter, luminescence/redox ratio; actives 0.13% (n = 350,000); activity score, % at 18.7 µM; AID 602363, 2012;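 active = replicate mean at a twofold rise or more, about +100% in these data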;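 also: firefly luciferase made from a UUG start codon reports start codon fidelity; reporter light over untreated wells divided by growth signal over untreated wells; some hits fall short of that in this replicate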
Rce1 inh: yeast Rce1p protease inhibitors, primary screen, biochemical, fluorescence, cell-free homogeneous; actives 0.27% (n = 290,000); AID 2563, 2010; calls only; yeast membranes, quenched prenylated peptide cleavage fluorescence; CAAX prenyl protease 2 (Saccharomyces cerevisiae (strain ATCC 204508 / S288c)), Q03530;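 active = fall in fluorescence gain of 50% or more versus controls, with final raw signal at or below 3038400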;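 also: plate controls were neutral control wells for no effect and wells lacking membranes for full effect; tested at 10 µM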
eIF4H inh retest: further read-out of eIF4H inh, marked with its call; inhibition, %; compound at 20 µM; confirmation average;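 mean of two retest wells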
PABP polyA inh retest: second read-out of PABP polyA inh, no call of its own (marks repeat the call); inhibition, %; compound at 20 µM; confirmation repeats;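 mean of two retest wells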
MT1-MMP act inh RFP: recorded beside MT1-MMP act inh, whose call it bears; RFP signal change, %; measured here: RFP expression control read;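 0 = vehicle wells; hits needed this value within 50% of zero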
* marks the source's active call; other numbers are inactive results; i = inactive; x = no result given; + = active, no number; & = joins results of further samples.

SMILES | CSC inhib | PABP polyA inh | Env fusion inh | eIF4H inh | MT1-MMP act inh | MT1-MMP act inh RFP | UUG fidelity | Rce1 inh | others
CCCN1CCN(C(=S)Nc2ccccc2C(F)(F)F)CC1 | -3 | 8 | -10 | -2 | -1 | -12 | -4 | i
COc1ccc(OC)c(C2C(C(=O)Nc3ccc(F)cc3)=C(C)Nc3nc(CCCO)nn32)c1 (stereo unspecified) | -8 | -5 | -21 | -3 | x | x | -8 | x
COc1ccccc1/C=C1\SC(=S)N(CCC(=O)NCCCn2ccnc2)C1=O | 100* | x | 17 | x | 1 | -3 | -23 | i
COc1cc2ccc(=O)oc2cc1OCC(O)C(C)(C)O (stereo unspecified) | -10 | 11 | x | 9 | 8 | 2 | -3 | i
O=S(=O)(c1ccc(F)cc1)N1CCC(n2cnc3ccccc32)CC1 | -2 | 1 | -15 | -1 | -2 | -2 | -22 | i
COc1ccc(-c2nc3c4ccccc4ccn3c2C=O)cc1 | -4 | -2 | 5 | -5 | 0 | 1 | x | i
Cc1ccc(C(=O)OC2CCS(=O)(=O)c3sccc32)cc1 (stereo unspecified) | -3 | 1 | x | -8 | 4 | -1 | -4 | i
O=C(O)c1cc([N+](=O)[O-])c(Sc2nc3ccccc3[nH]2)c([N+](=O)[O-])c1 | -14 | -3 | 2 | -7 | 2 | -1 | -4 | i
N#CC1=C(N)Oc2n[nH]c(-c3cccs3)c2C1c1ccco1 (stereo unspecified) | -13 | 51 | x | 43 | -4 | 10 | -9 | i | eIF4H inh retest=4;PABP polyA inh retest=6
CCOC(=O)C1CCN(c2cc(=O)n(C3CCCCC3)c(=O)[nH]2)CC1 | -9 | -14 | x | -15 | 0 | 1 | -1 | i
Clc1ccc2nc(-c3ccco3)c(Cc3ccccc3)n2c1 | x | x | 15 | x | -6 | -1 | 2 | x
CC1S/C(=C(\C#N)C(=O)NCc2ccco2)N(Cc2ccco2)C1=O (stereo unspecified) | -9 | 33 | x | 24 | -3 | 0 | -25 | i
COc1ccc(CNc2cc(C)ccn2)c(O)c1 | x | 2 | 8 | 2 | -4 | 0 | -22 | i
Cc1cc(C)c(NC(=O)CSc2nnc(-c3ccccn3)n2N)c(Cl)c1 | -9 | 5 | -6 | 6 | 6 | -2 | -14 | i
Cc1nc(C(=O)NCc2ccccc2)sc1C1(C)CC(c2ccccc2)=NO1 (stereo unspecified) | -7 | -6 | 20 | -1 | 6 | -8 | -10 | i
O=C(CSc1cn(CC(=O)N2CCCCC2)c2ccccc12)NCC1CCCO1 (stereo unspecified) | 2 | -8 | -5 | 6 | -3 | 0 | -14 | i
CN1C(=O)C(c2ccccc2[N+](=O)[O-])C(=O)c2ccccc21 (stereo unspecified) | -8 | -6 | 1 | -2 | -1 | 1 | -4 | i
C=CCn1cc(-c2cccc(Cl)c2)cc(C#N)c1=O | -22 | -10 | x | -1 | 3 | 1 | 0 | i
COc1ccc2oc(C(=O)NCC3CCCO3)c(C)c2c1 (stereo unspecified) | -4 | -8 | -29 | -9 | 0 | 2 | -10 | i
CCOc1ccc(NC(=O)CCS(=O)(=O)c2ccc(C)cc2)cc1 | -14 | -4 | -20 | -4 | -2 | -2 | -17 | i
C1CN(CC2COC(CN3CCOCC3)CO2)CCO1 (stereo unspecified) | x | x | -21 | x | 2 | 7 | -28 | x
CCN(C(=O)CN1CCN(c2ccccc2)CC1)c1c(N)n(Cc2ccccc2)c(=O)[nH]c1=O | 1 | 2 | -32 | -3 | -2 | -4 | -3 | i
Cc1ccc(C)c(N2CCN(C(=O)CCc3nc(-c4ccccc4Br)no3)CC2)c1 | x | x | -14 | x | 2 | 0 | 2 | x
CC1(c2ccccc2)CC(C)(C)N2C(=O)C(=O)c3cccc1c32 (stereo unspecified) | 1 | 4 | -1 | 10 | 3 | 7 | 1 | i
CCOC(=O)N1CCN(C(=O)c2cn(CC)c3ccc(S(=O)(=O)N4CCC(C)CC4)cc3c2=O)CC1 | x | 6 | 5 | -9 | -6 | -2 | 34 | i
CCCN(CCC)S(=O)(=O)c1ccc(C(=O)OCCN2C(=O)c3cccc4c(N5CCOCC5)ccc(c34)C2=O)cc1 | -3 | 118* | x | 129* | -134 | -9 | x | i | eIF4H inh retest=104*;PABP polyA inh retest=61*
Cn1c2c(c3ccccc31)CCN=C2c1ccccc1 | -11 | x | 13 | x | 2 | 5 | -7 | i
CC(C)(C)c1ccc(C(=O)NNC(=O)C(=O)N2CCCCC2)cc1 | 3 | 1 | -13 | 16 | 4 | -2 | -16 | i
COc1cc2c(cc1OC)C[N+](C)(C)CC2 | -2 | 53 | x | 5 | -2 | -4 | -5 | i | eIF4H inh retest=31;PABP polyA inh retest=38
CC1CN(CC(O)c2ccc(Br)cc2)CCO1 (stereo unspecified) | x | x | 6 | x | 0 | 2 | -15 | x
CCn1cc(S(=O)(=O)c2ccc(OC)cc2)c(=O)c2cc(F)c(N3CCN(C)CC3)cc21 | -21 | 2 | 11 | -2 | 3 | 5 | -13 | +
NNC(=O)c1ccc(OCC2CC(c3ccc(Cl)cc3)=NO2)cc1 (stereo unspecified) | 39 | -12 | -21 | -3 | 0 | -5 | 1 | i
O=C(NCc1cccnc1)c1ccc(N2CCOCC2)c([N+](=O)[O-])c1 | x | -6 | -3 | -19 | 2 | -2 | x | i
CCOc1cc(-c2cc(-c3ccc(NC(C)=O)cc3)nc(N)c2C#N)ccc1O | 19 | 1 | 28 | -6 | 1 | -4 | 5 | i
S=c1[nH]ncn1/N=C/c1ccco1 | x | x | 0 | x | 1 | 3 | -22 | x
O=C(CN1CCN(S(=O)(=O)c2cccc(Cl)c2)CC1)N1CCCCC1 | -15 | x | 0 | x | -3 | 0 | -8 | x
N#Cc1cccc(C#N)c1Oc1ccc(S(=O)(=O)Nc2ccc(Cl)cc2)cc1 | 23 | 10 | 8 | -12 | -8 | -19 | x | x
CCOC(=O)c1nn(-c2ccccc2C)c(=O)c(C#N)c1C | 6 | 2 | -35 | -2 | 1 | 3 | -3 | i
Cc1cccc(-n2ncc3c2CCCC3NC(=O)C2=CC(=O)CC(C)(C)O2)c1C (stereo unspecified) | -2 | -10 | 23 | -1 | -5 | -25 | -12 | i
Cn1nccc1NC(=O)NC(=O)c1c(Cl)cccc1Cl | -12 | 4 | -6 | 4 | -3 | 5 | x | i
CCOC(=O)CNC(=O)c1nn(-c2cccc(OC)c2)c(=O)c2ccccc12 | 5 | 3 | x | -5 | -1 | 3 | -11 | x
COc1ccccc1C(=O)N/C(=C\c1cn(C)c2ccccc12)C(=O)NCCN1CCOCC1 | x | x | 14 | x | -2 | 1 | -6 | x
N#CC(C#N)=c1ccc2c(c1)NC1(CCCCC1)N=2 | 62 | 37 | x | 20 | 20 | 5 | x | i
Cn1c(=O)c2cc(NC(=O)NCc3ccc(F)cc3)ccc2n1C | x | x | 0 | x | -1 | -5 | -13 | x
CCN1C[C@@H]2[C@@H]3C(=O)N(C)C(=O)[C@@H]3[C@](CC)(C(=O)OC)N2C1=NC | x | x | -45 | x | 4 | 4 | -12 | x
COc1cc(/C=N/Nc2ccc(S(N)(=O)=O)cc2[N+](=O)[O-])cc(OC)c1O | -3 | 0 | 11 | -1 | 8 | -4 | x | i
COCCNC(=O)C1(C)CCCN(Cc2ccc(-c3ccccn3)cc2)C1 (stereo unspecified) | x | x | -68 | x | -1 | 2 | -5 | x
Cn1ccnc1C(=O)c1cc(=O)c2ccccc2o1 | -1 | 11 | -17 | 4 | 2 | 5 | -2 | i
CCCCc1cc(=O)oc2cc(OCC(=O)N3CCC(C(=O)O)(c4ccccc4)CC3)ccc12 | 3 | 11 | x | -4 | 6 | -2 | 2 | i
O=C(CSc1nc2ccccc2c(=O)n1-c1ccccc1)NC(=O)CN1CCCC1=O | x | 11 | 6 | 36 | -5 | -1 | x | i
O=C(O)CC1(CC(=O)Nc2ccccc2Br)CCCC1 | 4 | x | -11 | x | 0 | -4 | x | i
Cc1cccc(N2CCN(C(=O)c3cc4n(n3)C(C(F)(F)F)CC(c3ccco3)N4)CC2)c1C (stereo unspecified) | 84* | 5 | x | -12 | 0 | -6 | -19 | i
CCc1ccc(CN2CCC(C(=O)Nc3cccc(-c4nnc(C)s4)c3)CC2)o1 | -4 | -2 | x | 6 | 1 | 0 | -9 | x
CN1[C@@H](CC(=O)c2ccccc2)CCC[C@H]1C[C@H](O)c1ccccc1 | x | 2&4 | 5 | 3&3 | 2 | 5 | -16 | i
Oc1cccc(C=NCc2ccccc2)c1 | 3 | -15 | -84 | -2 | 8 | 5 | -13 | i
CN1C(=O)CC(C(=O)Nc2ccc(F)cc2)SC1=Nc1ccc2c(c1)OCO2 (stereo unspecified) | -7 | 6 | 24 | -8 | 0 | -3 | 4 | i
O=C(C[n+]1ccccc1)NNc1ccccc1 | 114* | x | 11 | x | -1 | 1 | -26 | i
Cc1nnc(N/N=C/c2cc([N+](=O)[O-])c(N3CCC(C)CC3)cc2N2CCC(C)CC2)n1N | 19 | 10 | -13 | 5 | 6 | -2 | -13 | i
CC(C)OC(=O)c1c(NC(=O)C2CC=CCC2C(=O)O)sc2c1CCCCC2 (stereo unspecified) | 36 | 8 | -7 | 25 | -2 | 8 | -4 | i
O=C1NC2(CCCCC2)C(=O)N1CCS(=O)(=O)Oc1ccc(Br)cc1 | -12 | 0 | 1 | 0 | -11 | -5 | x | i

(list continues)
SMILES | CSC inhib | PABP polyA inh | Env fusion inh | eIF4H inh | MT1-MMP act inh | MT1-MMP act inh RFP | UUG fidelity | Rce1 inh | others
C=CCNC(=O)C(=O)NCC(c1ccc2c(c1)OCO2)N1CCN(c2ccc(F)cc2)CC1 (stereo unspecified) | -9 | -10 | -10 | 3 | -1 | 0 | -21 | i
O=C(OCCN1CCCC1=O)c1cncc(Br)c1 | 3 | 3 | x | -8 | -2 | 3 | -16 | i
O=C(CSc1nnc(-c2ccccc2Cl)o1)Oc1ccc(Br)cc1 | 12 | -12 | x | -2 | -1 | -4 | 0 | i
O=C(O)CN1C(=O)/C(=C\c2cc(Br)ccc2OCc2ccccc2Cl)SC1=S | 97* | 24* | -44 | 60* | x | x | -19 | i | eIF4H inh retest=88*;PABP polyA inh retest=53*
COC(=O)C1=C(C)Nc2c(c(=O)n(C)c(=O)n2C)C1c1ccncc1 (stereo unspecified) | -2 | 1 | -18 | 1 | 4 | 6 | -17 | i
C(=N\N1CCN(Cc2ccccc2)CC1)/c1cccnc1 | -2 | 2 | x | -8 | 11 | 11 | -5 | i
COc1cccc(-c2nnc(SCC(=O)N(C(C)C)C(C)C)o2)c1 | -13 | -4 | -35 | -13 | 0 | -5 | 4 | x
Cc1ccc(CS(=O)(=O)Cc2ccc(C(=O)NCc3ccco3)o2)cc1 | 8 | -11 | x | 0 | 3 | -2 | -4 | i
CS(=O)(=O)c1sc(C(=O)NC(=S)Nc2ccc(OC(F)(F)F)cc2)c2c1C=CCC2 | 17 | 4 | -19 | -1 | -1 | 2 | x | i

2 compounds picked at random from the list so far, as already listed:
SMILES | CSC inhib | PABP polyA inh | Env fusion inh | eIF4H inh | MT1-MMP act inh | MT1-MMP act inh RFP | UUG fidelity | Rce1 inh | others
O=C(CSc1nnc(-c2ccccc2Cl)o1)Oc1ccc(Br)cc1 | 12 | -12 | x | -2 | -1 | -4 | 0 | i
C(=N\N1CCN(Cc2ccccc2)CC1)/c1cccnc1 | -2 | 2 | x | -8 | 11 | 11 | -5 | i

Screening results deposited in PubChem BioAssay by several laboratories.

Outcome played no part in choosing rows. About 2.9% of those tested had a hit in this group.
